Source: PubChem
PMP22 txn prim – modulators of PMP22 gene transcription in S16 Schwann cells. S16 Pmp22-F2sN Schwann cells (luciferase reporters placed in the Pmp22 gene), FLuc/NLuc coincidence luminescence, 24 h. Potency, µM (top dose mostly 57.5 µM), inactives show at the highest dose activity change, negative = inhibition, actives largely listed as inhibitors. 43,000 compounds, 2% hits. AID 1508649; active = clear falling dose curves in both reporters; inconclusive = both reporters move, but less clearly or upward; inactive = either reporter flat; the % is the NLuc reporter signal; note: % is set by controls: 0 for no effect and ±100 for the full control effect; some results filed as inactive show a strong effect at the top dose
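qHTS, 1536-well. Cells seeded, compounds added by pin tool, 24 h 37C. Nano-Glo reagent 1 (lysis/FLuc), 10 min RT, read; Stop&Glo, 10 min RT, read NLuc.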
HTT prom inh – inhibitors of huntingtin promoter activity. 48,000 compounds, 0.93% hits. HEK293 HTT promoter firefly luciferase reporter (activity 0% = vehicle and -100% = no light), 24 h. AID 1508623. Potency, µM (series often up to 57.5 µM), for inactives: at the top dose activity change, negative = inhibition, usual class: inhibitors; active = well fitted inhibition curve with a large enough effect; inconclusive = small, poorly fitted or top-dose-only effect; inactive = no such curve, though single readings can be large or run the other way; note: nearly all actives have a fitted effect of over 50% in size
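Quantitative HTS used concentration series of up to 57.5 uM final on HEK293 luciferase reporter cells, 24 h at 37 degrees C. Readout was Dual-Glo firefly luminescence.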
* hit, by the source's call; ? = inconclusive; . = no result given; [ ] = another dose, or the depositor's remark. Potency is the fitted concentration of half-maximal effect.

SMILES	PMP22 txn prim	HTT prom inh
Cc1cc(C)cc(NC(=O)C(=O)NCC(c2cccnc2)N2CCc3ccccc3C2)c1 (stereo not drawn)	?	?
O=C(CS(=O)(=O)c1cccc2nsnc12)Nc1ccc(F)cc1F	-10.7%	-4.9%
O=C(NC1CCCCC1)c1cc2c(Cl)nc3ccccc3c2s1	-16.2%	4.1%
Cc1nc(-c2ccccc2)sc1-c1ccc(SCC(=O)Nc2ccc(F)cc2F)nn1	4.5%	-1.2%
N#CC1=C2SCN(C3CCCCC3)CN2C(=O)CC1c1ccc(Cl)cc1 (stereo not drawn)	?	-18.6%
Cc1cc(C)c(NC(=O)C(C)n2c(=O)cc(-c3ccccc3)c3c(C)nn(C)c32)c(C)c1 (stereo not drawn)	-6.1%	-0.3%
O=C(Cn1cc(S(=O)(=O)Cc2ccccc2Cl)c2ccccc21)Nc1cccc(C(F)(F)F)c1	?	?
CCC(CC)C(=O)Nc1nnc(S(=O)(=O)N(C)c2cc(C)cc(C)c2)s1	11.8%	?
CC(C)c1ccc(N2C(=O)CSC23C(=O)N(Cc2ccccc2)c2ccccc23)cc1 (stereo not drawn)	?	-16.3%
Cc1[nH]c2ccccc2c1C(c1ccccc1)c1ccc(Cl)s1 (stereo not drawn)	?	?
O=C(Nc1ccc(Cl)cc1)N1CCC(CN2CCCCCC2)CC1	-61.8%	3.3%
C=Cc1ccc(Cn2c(=O)n(-c3cccc(C)c3)c(=O)c3c2c2cc(C)ccc2n3C)cc1	-29.5%	-26.4%
CN1CCN(C(=O)c2ccc3c(c2)N(Cc2ccc(C(F)(F)F)cc2)C(=O)c2ccccc2S3)CC1	?	-21.7%
CCN(C(=O)CSc1nnc(-c2cc3occc3n2C)n1-c1ccccc1C)c1ccccc1	2.8%	-12.2%
COc1cccc(Cc2nc3ccccc3nc2SCC(=O)N2CCN(c3ccccc3)CC2)c1	-15.2%	?
COc1ccc(Cn2c(SCC(=O)Nc3ccc(OC)cc3)nc3ccccc32)cc1	?	?
CCc1cccc(C)c1Nc1c(-c2cccs2)nc2ncccn12	-0.4%	-20.1%
Cn1c2c(c(=O)n(C)c1=O)C(c1cccc(O)c1)CC(=O)N2 (stereo not drawn)	2.2%	6.1%
O=C(c1ccc2c(c1)N(Cc1ccc(Cl)cc1)C(=O)c1ccccc1S2=O)N1CCC(Cc2ccccc2)CC1 (stereo not drawn)	?	?
COc1ccc(C(=O)c2sc3nc4c(c(C(F)(F)F)c3c2N)CN(C(C)=O)CC4)cc1OC	?	?
COc1ccc(-c2nc3ccccc3o2)cc1NC(=O)c1cccc2c(Cl)cccc12	-5.0%	5.0%
CCCCN1CCCc2cc(CN(CCCN3CCOCC3)C(=O)Nc3ccc(CC)cc3)ccc21	-17.7%	6.0%
COc1ccccc1Cc1nc2ccccc2nc1SCC(=O)NCc1ccc(F)cc1	-0.2%	3.9%
CCOc1ccc(NC(=O)CCCOc2cc(=O)n(C)c3ccccc23)cc1	-6.1%	-5.4%
COc1cccc(NC(=O)Cn2nc(-c3ccncc3)ccc2=O)c1	4.7%	-11.0%[11.5 µM]
CCC(Sc1nc(-c2ccccc2)[nH]c1S(=O)(=O)c1ccc(C)cc1)C(=O)O (stereo not drawn)	13.1%	-13.3%
Cc1ccc2c(=O)cc(C(=O)Nc3ccc(S(=O)(=O)N4CCCCCC4)cc3)oc2c1C	-6.0%	13.1%
CCN(CC)C(=O)c1sc2c(c1C)c(=O)n(CCc1ccccc1)c(=O)n2Cc1ccc(F)cc1Cl	?	0.3%
COc1ccc(NC(=O)N2CCN(Cc3nc4ccc(C)cc4o3)CC2)cc1OC	-21.0%	-20.4%
O=C(CCc1nc2cccnc2n1Cc1cccs1)Nc1cccc(C(F)(F)F)c1	-10.2%	?

6 entries already listed, ordered by the value under HTT prom inh, rising:
| Molecule | HTT prom inh |
| --- | --- |
| CCC(Sc1nc(-c2ccccc2)[nH]c1S(=O)(=O)c1ccc(C)cc1)C(=O)O (stereo not drawn) | -13.3% |
| CCOc1ccc(NC(=O)CCCOc2cc(=O)n(C)c3ccccc23)cc1 | -5.4% |
| O=C(CS(=O)(=O)c1cccc2nsnc12)Nc1ccc(F)cc1F | -4.9% |
| O=C(Nc1ccc(Cl)cc1)N1CCC(CN2CCCCCC2)CC1 | 3.3% |
| O=C(NC1CCCCC1)c1cc2c(Cl)nc3ccccc3c2s1 | 4.1% |
| CCCCN1CCCc2cc(CN(CCCN3CCOCC3)C(=O)Nc3ccc(CC)cc3)ccc21 | 6.0% |

Continuation:
SMILES	PMP22 txn prim	HTT prom inh
Cc1cccc(CN2C(=O)c3ccccc3Sc3ccc(C(=O)NCc4cccs4)cc32)c1	-0.4%	-18.6%
COc1ccccc1NC(=O)c1cnc(SCC(=O)N2CCOCC2)n(C)c1=O	10.7µM*	31.3%
CCc1ccc2c(c1)-c1ccccc1S(=O)(=O)N2CC(=O)N1CCC(C)CC1	?	16.0%
Cc1oc2ncn(CC(C)C)c(=O)c2c1C(=O)Nc1ccc(Cl)cn1	-56.5%	0.7%
COc1ccc(CCN2C(=O)c3[nH]nc(-c4ccccc4O)c3C2c2ccccc2)cc1 (stereo not drawn)	?	?
CCOC(=O)C1CCCN(C(=O)c2ccc(-n3ccc4ccccc43)s2)C1 (stereo not drawn)	24.0%	-22.1%
CCOc1cc(CNC(=O)c2ccc3c(c2)nc2n3CCCCC2)ccc1OC	-1.2%	-12.5%
Cc1ccc(NC(=O)N2CC3CCCN3c3ccccc32)cc1C (stereo not drawn)	-36.6%	-31.8%
Clc1cccc(-n2cc(-c3ccccc3)c3c(NC4CCCC4)ncnc32)c1	?	-22.0%
Oc1ccc(Nc2nc(-c3ccc(Cl)cc3)nc3ccccc23)cc1	?	-29.2%
CN1CCN(c2c(F)cc3c(=O)c(C(=O)O)cn4c3c2OCN4C)CC1	.	10.6%
Cc1cccc(C(=O)Nc2cccc(OCc3cc(=O)n4ccccc4n3)c2)c1	-10.3%	12.8%
Cc1ccccc1C(=O)Nc1ccc(OCc2cc(=O)n3cccc(C)c3n2)cc1	12.2%	-1.5%
O=C(Cc1ccccc1)Nc1cc(-c2nc3cc(Cl)ccc3o2)ccc1Cl	-10.8%	-5.5%
O=C(NCCc1ccccc1)c1c[nH]c2ccc(S(=O)(=O)Nc3ccccc3F)cc2c1=O	?	-20.0%
Cc1cccc(Nc2c(-c3cccs3)nc3nc(C)cc(C)n23)c1	-13.2%	31.5%[activator]
CCOc1ccc(-n2nc(CO)c(C(=O)NCc3cccnc3)n2)cc1	-5.2%	-24.2%
COc1cc2c(cc1NC(=O)c1ccccc1C)n(C)c(=O)n2C	?	9.8%
CCN(c1ccccc1)S(=O)(=O)c1nnc(NC(=O)COc2ccc(OC)cc2)s1	9.6%	-9.6%
Cc1cc(C)cc(NC(=O)Cn2nnc(-c3ccccc3F)n2)c1	-4.3%	-17.8%
COc1cccc(-c2nc(SCC(=O)NCC3CCCO3)c(-c3ccc(C)cc3)[nH]2)c1 (stereo not drawn)	23.7%	-19.1%
Cc1ccc(C(=O)NC2(C(F)(F)F)N=C(c3ccccc3)N(C3CCCCC3)C2=O)cc1 (stereo not drawn)	-4.5%	-14.8%
Cc1ccc2oc(C(=O)NCC(c3ccc(Cl)cc3)N3CCOCC3)c(C)c2c1 (stereo not drawn)	9.3%	?
Cc1ccc(CNC(=O)c2cc(NS(=O)(=O)c3ccc(C)cc3)ccn2)cc1	-1.7%	-8.1%
COC(=O)c1ccc(Cn2nnc3c(=O)[nH]c(C4CCCN(S(=O)(=O)c5cccc(Cl)c5)C4)nc32)cc1 (stereo not drawn)	?	-25.5%
CC(C)Cn1c(/C=C/c2ccc(F)cc2)nc2ccccc21	?	25.7%
CC1=C(C(=O)OC2CCCCCC2)C(c2ccccc2Cl)CC(=O)N1 (stereo not drawn)	-18.8%	?
O=C(c1ccc2c(c1)OCCO2)N(Cc1cccnc1)c1nc2c(F)cccc2s1	?	?
CCOc1ccc(CCNC(=O)c2cccc(-n3c(C)nc4cccnc43)c2C)cc1	?	?
Cc1c(C(=O)Nc2cccc(-c3nc4ccccc4s3)c2)oc2ccc(F)cc12	-19.8%	6.2%

Record cards, from the list above. Values in the order: PMP22 txn prim, HTT prom inh
Results for CCOc1ccc(-n2nc(CO)c(C(=O)NCc3cccnc3)n2)cc1 = -5.2%, -24.2%
Results for Cc1cc(C)cc(NC(=O)Cn2nnc(-c3ccccc3F)n2)c1 = -4.3%, -17.8%

(continued)
SMILES	PMP22 txn prim	HTT prom inh
Cc1nc2c(c(SCC(=O)Nc3ccccc3C(F)(F)F)n1)CCC2	?	?
Cc1cc(C)n(-c2nc3cc(Cl)ccc3nc2Nc2ccc(C)c(F)c2)n1	1.3%	-9.0%
COc1cccc(C2C(C(=O)Nc3ccccc3)=C(C)Nc3nc(-c4ccccc4)nn32)c1OC (stereo not drawn)	-16.3%	-11.9%
O=C(NCC(c1ccc2c(c1)OCO2)N1CCN(c2ccccc2)CC1)C(=O)Nc1ccccc1 (stereo not drawn)	-7.5%	-1.8%
CCCn1cc(S(=O)(=O)c2cc(C)ccc2C)c(=O)c2cc(F)c(N3CCOCC3)cc21	7.4%	14.9%
Cc1nn(C)c2c1c(C(F)(F)F)cc(=O)n2Cc1ccc(Br)cc1F	-21.0%	?
Cc1ccc(N2CCN(S(=O)(=O)c3nnc(NC(=O)c4ccc(C(C)C)cc4)s3)CC2)cc1	18.1%	-2.3%
CCc1ccc(CNC(=O)COc2cc(=O)n(CC)c3ccccc23)cc1	?	-39.4%[11.5 µM]
COC(=O)c1ccc(NC(=O)CCCC(=O)OCC(=O)c2ccc(Cl)cc2)cc1	-30.6%	-2.1%
O=C(CSc1nc2ccncc2[nH]1)Nc1ccccc1C(F)(F)F	?	?
CC1CCN(S(=O)(=O)c2cc(C(=O)N3CCN(c4ccccc4F)CC3)n(C)c2)CC1	?	-30.6%
Cc1ccc(NC(=O)Cn2c(SCc3ccc(F)cc3)nc3cccnc32)cc1F	1.1%	-13.8%
Cc1ccc(-c2ccc(=O)n(CC(=O)NCc3ccc(F)cc3)n2)cc1	?	-12.1%
COC(=O)c1ccccc1NC(=O)CSc1cc(-c2ccccc2)nc(C)n1	-15.8%	-11.8%
O=C(Nc1nnc(S(=O)(=O)N2CCCC2)s1)c1ccc(F)cc1	5.6%	-11.9%
O=C(c1cnc(N2CCCCC2)c2ccccc12)N1CCN(c2ccccc2F)CC1	?	-18.5%
CCOc1ccc(S(=O)(=O)N2CCC(n3c(C)nc4cccnc43)CC2)cc1	?	?
COc1cc2nc(NCc3ccccc3Cl)n3nc(-c4cccnc4)nc3c2cc1OC	-11.8%	-10.4%
CCOc1ccc(CCNC(=O)c2ccc3[nH]c(C)c(C)c3c2)cc1	-7.1%	-20.8%
COc1ccc(N2CCN(Cc3nc4c(c(=O)[nH]c(=O)n4C)n3Cc3ccc(C)cc3)CC2)cc1	-15.2%	-12.3%
CCOC(=O)c1cc(S(=O)(=O)N2CCN(c3ccccc3F)CC2)[nH]n1	?	-8.9%
CCc1ccc(NC(=O)Cn2c(C(=O)OC)cc3oc(C)cc32)cc1	-1.5%	-26.9%
Cc1ccc2oc(=O)c3cc(C(=O)Nc4ccc(F)cc4F)sc3c2c1	-24.4%	-4.7%
Fc1ccccc1N1CCN(c2ncnc3onc(-c4ccc(Cl)cc4)c23)CC1	-25.5%	?
CCOC(=O)N1CCc2c(sc3c2c(=O)n(-c2ccc(Cl)cc2)c(=O)n3CC(C)C)C1	-9.9%	2.9%
Cc1ccccc1-n1nc(CO)c(C(=O)NCCc2ccccc2)n1	-3.8%	-7.4%
O=S(=O)(c1ccc(OC(F)(F)F)cc1)N1CCC(c2nc3ccccc3s2)CC1	0.7%	1.4%
Cc1cccc(-c2nnn3c2nc(NCc2ccc4c(c2)OCO4)c2ccccc23)c1	16.8µM*	-3.6%
Cc1cccn2c(=O)c(C(=O)N3CCN(c4ccccc4F)CC3)cnc12	-10.9%	12.8%
Cc1ccccc1N1CCN(S(=O)(=O)c2nnc(NC(=O)c3ccc(C(C)C)cc3)s2)CC1	20.2%	-24.2%
COc1cccc(C(=O)NCCc2sc(-c3cccc(C)c3)nc2C)c1	10.7%	-11.4%
CC1=C(C(=O)O)N2C(=O)[C@@H](NC(=O)C(N)c3ccccc3)[C@H]2SC1 (stereo partly drawn)	.	2.1%
Nc1ccn([C@@H]2O[C@H](CO)[C@@H](O)C2(F)F)c(=O)n1	.	-22.3%
COc1cc(NC(=O)CC(c2ccc(C)cc2)N2Cc3ccccc3C2=O)cc(OC)c1 (stereo not drawn)	?	-15.2%
O=C(CCCc1nc(-c2ccccc2)no1)Nc1cc(C(F)(F)F)cc(C(F)(F)F)c1	3.9%	-22.7%
CCCCCCNC(=O)CCc1c(C)nc2nc(-c3cc(OC)cc(OC)c3)nn2c1C	-18.2%	-16.2%
CCSc1nc(-c2ccc(OC)cc2)nc2c1Cc1c(CO)cnc(C)c1O2	?	-11.4%
CCOC(=O)c1cnc2ccc(C(=O)OC)cc2c1Nc1ccccc1CC	?	?
COc1cn(CC(=O)Nc2ccc(C)cc2C)c(CN2CCCCC2)cc1=O	2.0%	-19.8%
CCS(=O)(=O)c1c(Nc2cc(C)ccc2C)sc(C(=O)c2ccccc2)c1N	?	?
O=C(NCC(c1cccnc1)N1CCc2ccccc2C1)C(=O)Nc1cccc(Cl)c1 (stereo not drawn)	-35.0%	?
Cc1cc(C)cc(NS(=O)(=O)c2ccc3[nH]cc(C(=O)N4CCCC4)c(=O)c3c2)c1	-14.4%	-9.9%
Cc1cccc(C(=O)Nc2ccccc2-c2nc(-c3ccccc3)no2)c1	-13.5%	9.9%

Rows were taken by chance (roughly 2.4% active in at least one column).
